Lassa entry inh: inhibitors of Lassa virus binding or cell entry; Lassa virus pseudotype entry inhibition, cell reporter; control for the full effect not named in the record; AID 540256; Potency, µM (doses to about 37.9 µM), without a hit: at the top dose activity change, negative = inhibition, usual class: inhibitors; hit rate 1.2% among 300,000; active means well fitted inhibition curve with a large enough effect; inconclusive means small, poorly fitted or top-dose-only effect, or effect the other way; inactive means flat fitted curve, though single readings scatter; tested in HEK293 cells; also: % is scaled to controls: 0 for no effect and ±100 for the full control effect; nearly all actives have a fitted effect of over 50% in size; luciferase read-out
Cruzain noTriton: inhibitors of Trypanosoma cruzi cruzain without detergent; purified cruzain, Z-FR-AMC fluorescence, no detergent; Potency, µM, for the others: max response, negative = inhibition, hits mostly inhibitors; hit rate 2.3% among 200,000; AID 1476;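 also: plate controls were enzyme without inhibitor for no effect and buffer without enzyme for full effect; nearly all actives have a fitted effect of over 40% in size; top concentration of the series not given in the record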
Target sequence (P25779 123-467 limits assumed): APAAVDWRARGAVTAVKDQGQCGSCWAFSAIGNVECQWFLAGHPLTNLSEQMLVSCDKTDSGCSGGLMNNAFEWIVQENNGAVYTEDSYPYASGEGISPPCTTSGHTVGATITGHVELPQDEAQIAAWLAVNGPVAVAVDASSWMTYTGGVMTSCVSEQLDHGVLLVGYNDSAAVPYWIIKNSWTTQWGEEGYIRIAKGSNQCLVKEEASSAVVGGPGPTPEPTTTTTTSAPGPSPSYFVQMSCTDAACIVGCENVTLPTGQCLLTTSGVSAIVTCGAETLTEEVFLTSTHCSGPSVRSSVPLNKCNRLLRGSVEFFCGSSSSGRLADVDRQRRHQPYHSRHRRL
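Purified cruzain at 1.5 nM, pre-incubated 15 min with compound at room temperature in 100 mM sodium acetate pH 5.5, 5 mM DTT, 0.00005% Triton X-100. Reaction started with 2 uM Z-FR-AMC; AMC fluorescence increase over 60 s gives rate.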
Cruzain inh Det: cruzain (T. cruzi) inhibition with detergent; hit rate 0.43% among 200,000; Potency, µM, for inactives: max response, negative = inhibition, actives largely listed as inhibitors; AID 1478; P25779; purified cruzain, Z-FR-AMC fluorescence, 0.01% Triton;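 also: plate controls were neutral wells for no effect and buffer without enzyme for full effect; nearly all actives have a fitted effect of over 40% in size; top concentration of the series not given in the record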
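Detergent-containing run (0.01% Triton X-100) in acetate buffer pH 5.5 with 5 mM DTT: enzyme at 1.5 nM final, 15 min compound preincubation at room temperature, then 2 uM Z-FR-AMC substrate. Activity taken as 60 s fluorescence increase at 360/450 nm.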
RE007 growth inh: less growth of the S. pombe RE007 Vpr strain. S. pombe RE007 Vpr strain, BacTiter-Glo ATP luminescence, 24 h; control for the full effect not named in the record. Potency, µM (titrated, usually from 92.2 µM), for inactives: top-dose activity change, negative = less growth. hit rate 0.21% among 360,000; active = well fitted falling curve with a large enough effect; inconclusive = small, poorly fitted or top-dose-only effect; inactive = no such curve, though single readings can be large or run the other way;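 also: % is scaled to controls: 0 for no effect and ±100 for the full control effect; nearly all actives have a fitted effect of over 50% in size; the assay follows cell death caused by Vpr and the record does not say whether a fall means rescue or toxicity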
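Fission yeast strain RE007, carrying one chromosomally integrated HIV-1 vpr copy, was seeded at OD 0.01 in PMG+AL medium with 23 nL pinned compound. After 24 h at 30 °C and 99% humidity, viability was read by BacTiter-Glo luminescence.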
NS1 inh: inhibitors of influenza NS1 protein function | S. cerevisiae slowed by influenza A NS1, growth recovery by OD600 | Potency, µM (top dose mostly 46.1 µM), for the others: at the top dose activity, positive = more growth | hit rate 0.4% among 270,000; active means well fitted rising curve with a large enough effect; inconclusive means small, poorly fitted or top-dose-only effect; inactive means no such curve, though single readings can be large or run the other way; also: nearly all actives have a fitted effect of over 50% in size
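A cell-based growth assay was used: compounds that relieve NS1-induced slow growth of budding yeast raise OD600. Assay medium was yeast nitrogen base with ammonium sulphate and -URA supplement, pH 6.0, with 2% galactose.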
SARS PLP yeast: inhibitors of SARS-CoV papain-like protease in yeast; Potency, µM (titrated, usually from 32.9 µM), for the others: at the highest dose activity, positive = growth rescue; S. cerevisiae expressing SARS-CoV PLpro, growth rescue; control for the full effect not named in the record; hit rate 0.19% among 330,000; active means well fitted rising curve with a large enough effect; inconclusive means small, poorly fitted or top-dose-only effect; inactive means no such curve, though single readings can be large or run the other way; also: 0% is about no effect; nearly all actives have a fitted effect of over 55% in size; growth read by luminescence after 48 h
StopGo reporter: lowers the luciferase signal of an FMDV 2A StopGo reporter | human cells with a luciferase reporter of 2A StopGo recoding; control for the full effect not named in the record | Potency, µM (series often up to 57.9 µM), for inactives: at the highest dose signal change, negative = less light | hit rate 1.2% among 410,000 | AID 1159524; active = well fitted falling curve with a large enough effect; inconclusive = small, poorly fitted or top-dose-only effect; inactive = no such curve, though single readings can be large or run the other way; tested in HEK293T cells; also: % is scaled to controls: 0 for no effect and ±100 for the full control effect; nearly all actives have a fitted effect of over 45% in size; luciferase light after 4 h
MARV entry inh: Marburg virus entry inhibition. AID 540276. hit rate 1.8% among 300,000. Potency, µM (titrated, usually from 37.8 µM), inactives show top-dose activity change, negative = inhibition, usual class: inhibitors. Marburg virus pseudotyped entry inhibition, cell reporter; control for the full effect not named in the record; about a third of the inactives were read at about 46 µM; active = well fitted inhibition curve with a large enough effect; inconclusive = small, poorly fitted or top-dose-only effect, or effect the other way; inactive = flat fitted curve, though single readings scatter; tested in HEK293 cells; about a fifth of its hits are not listed in these tables; also: % is scaled to controls: 0 for no effect and ±100 for the full control effect; luciferase read-out
* marks the source's active call; other numbers are inactive results; ? = inconclusive; nt = no result given; [ ] = dose if it differs, or a comment. Unless noted, calls follow the shape of the dose curve; as a rule, active = well fitted curve in the direction sought with a large enough effect; inconclusive = small, poorly fitted or top-dose-only effect, or another doubt; inactive = no such curve, though single readings can be large; an effect the other way counts as inactive or inconclusive. Potency is read from the fitted curve at half-maximal effect.

SMILES	Lassa entry inh	Cruzain noTriton	Cruzain inh Det	RE007 growth inh	NS1 inh	SARS PLP yeast	StopGo reporter	MARV entry inh
CCCCOC(=O)C1=C(C)NC2(O)c3ccccc3C(=O)C12O (stereo unspecified)	9%	2%	1.2%	-7%	2%	3%	-8%	1%
CC(C)CC(=O)NC(=S)N1CCCCCC1	1%	-1%	1.7%	5%	5%	17%	30%	16%
COc1cccc(OC)c1C(=O)n1nc(C)cc1C	12%	-1%	4.0%	16%	-1%	1%	16%	6%
CCCOc1ccc(N2C(=O)CC(SCCN)C2=O)cc1 (stereo unspecified)	-18%	-11%	2.6%	7.9µM*	-46%	-28%	21%	-29%
O=C(Nc1nccs1)c1ccc(S(=O)(=O)NCc2cccs2)cc1	-29%	-28%	-4.9%	3%	0%	3%	nt	-11%
CCOc1ccc(/C=N/n2c(C)nc3ccccc3c2=O)cc1	nt	nt	nt	17%	-3%	-1%	2%	nt
CCOc1ccc(-n2cc(-c3ccc(OC)c(OC)c3)[nH]c2=S)cc1	-12%[46.1 µM]	nt	nt	2%	nt	-2%	-24%	16%[46.1 µM]
Cc1ccc(C2CCN(C(=O)Nc3ccc(C)c(C)c3)C2)cc1 (stereo unspecified)	16%[46.1 µM]	-6%	-4.3%	nt	nt	nt	45%[activator]	nt
N#Cc1nc(-c2cccc(Cl)c2)oc1N1CCC(C(N)=O)CC1	?	nt	nt	-26%	0%	-1%	-5%	?
Cc1cccc(Nc2nc3c(c(=O)n(C)c(=O)n3C)n2CC(O)CO)c1 (stereo unspecified)	6%	2%	1.0%	-2%	-20%	0%	-13%	-22%[46.1 µM]
COc1ccc2c(c1)CC/C(=C/c1ccncc1)C2=O	22%	8%	-10.0%	?	-18%	-61%	?	?
C=CCNC(=O)Cn1nnc(-c2ccc(-c3ccc(OC)cc3)cc2)n1	nt	nt	nt	-2%	?	6%	41%[activator]	nt
COC(=O)C1CCN(c2ccc([N+](=O)[O-])cc2)CC1	-5%[46.1 µM]	nt	nt	-2%	nt	2%	-2%	-4%[46.1 µM]
Cc1ccc(CNC(=O)C2CCN(C(=O)Nc3ccccc3)CC2)cc1	10%	nt	nt	8%	6%	-2%	-7%	20%[46.1 µM]
COC(=O)c1ccc(-c2ncc(-c3cccc4ccccc34)o2)cc1	24%	?	20µM*	-18%	2%	1%	-7%	?

Reprinted from the part before: 2 entries, followed by the next part.
SMILES	Lassa entry inh	Cruzain noTriton	Cruzain inh Det	RE007 growth inh	NS1 inh	SARS PLP yeast	StopGo reporter	MARV entry inh
Cc1ccc(CNC(=O)C2CCN(C(=O)Nc3ccccc3)CC2)cc1	10%	nt	nt	8%	6%	-2%	-7%	20%[46.1 µM]
COC(=O)c1ccc(-c2ncc(-c3cccc4ccccc34)o2)cc1	24%	?	20µM*	-18%	2%	1%	-7%	?
Cc1cc2ccccn2c1C(=O)c1nc(NCc2ccco2)ncc1Cl	-10%[46.1 µM]	nt	nt	14%	nt	-6%	-13%	-2%[46.1 µM]
CCOc1c(Cl)cc(C(=O)Nc2ccccc2-c2ccccc2)cc1Cl	-6%	-3%	-1.2%	3%	-5%	-4%	-23%	?
CS(=O)c1ccccc1COC(=O)Nc1ccccc1 (stereo unspecified)	1%	nt	nt	-13%	nt	3%	-8%	4%[46.1 µM]
Cc1ccc(Cn2c(C)c3cnn(CC(=O)NCc4ccccn4)c(=O)c3c2C)cc1	nt	nt	nt	-6%	-5%	4%	-8%	nt
Cc1nn(C)cc1CNC(=O)CCC(=O)O	10%	10%	4.3%	14%	7%	1%	-16%	?
COc1ccccc1CCNCc1ccc(OC)c(OC)c1OC	nt	nt	nt	-1%	4%	0%	-11%	nt
CCC1(C)Cc2ccccc2C(=O)N1 (stereo unspecified)	nt	nt	nt	6%	-3%	0%	-13%	nt
COc1ccc(CNC(=O)c2cc3c(=O)n(C)c4ccccc4c3n2C)c(OC)c1	?	-2%	2.1%	nt	nt	nt	0%	-19%[46.1 µM]
O=C(Nc1ncccc1O)c1ccc2c(c1)OCO2	8%	nt	nt	-10%	nt	2%	14%	-2%[46.1 µM]
CN(c1ccc(OCc2ccc([N+](=O)[O-])cc2)cc1)S(=O)(=O)c1ccccc1	?	nt	nt	0%	-10%	-2%	-11%	-29%[46.1 µM]
C=CCn1c(NCc2ccccc2O)nc2ccccc21	26%	nt	nt	-13%	-4%	-7%	41%[activator]	3%
C/C(=N\Nc1ccc([N+](=O)[O-])cc1[N+](=O)[O-])c1ccc(-n2nncc2C(C)(C)C)cc1	-11%	?	-2.0%	-11%	2%	-3%	0%	?
COc1ccccc1NC(=O)C1CCCN(C(=O)Nc2ccc(F)cc2)C1 (stereo unspecified)	4%	nt	nt	3%	5%	-6%	-8%	-11%[46.1 µM]
CCOc1ccccc1NC(=O)c1cc2cc(C)ccc2n1C	?	-2%	-2.5%	nt	nt	nt	-8%	-28%[46.1 µM]
CCCCn1c(C(C)NC(=O)CC)nc2ccccc21 (stereo unspecified)	nt	4%	-0.5%	15%	-11%	-6%	-19%	nt

Complete entries as entered above. Values in the order: Lassa entry inh, Cruzain noTriton, Cruzain inh Det, RE007 growth inh, NS1 inh, SARS PLP yeast, StopGo reporter, MARV entry inh
Record of CCOc1c(Cl)cc(C(=O)Nc2ccccc2-c2ccccc2)cc1Cl : -6%, -3%, -1.2%, 3%, -5%, -4%, -23%, ?
Record of Cc1nn(C)cc1CNC(=O)CCC(=O)O : 10%, 10%, 4.3%, 14%, 7%, 1%, -16%, ?
Record of CCOc1ccccc1NC(=O)c1cc2cc(C)ccc2n1C : ?, -2%, -2.5%, nt, nt, nt, -8%, -28%[46.1 µM]

The list goes on:
SMILES	Lassa entry inh	Cruzain noTriton	Cruzain inh Det	RE007 growth inh	NS1 inh	SARS PLP yeast	StopGo reporter	MARV entry inh
CCN(CC)S(=O)(=O)c1ccc(C(=O)Nc2nc3c(Cl)cc(Cl)cc3s2)cc1	?	-2%	6.4%	nt	nt	nt	-4%	nt
CCOC(=O)Nc1cccc(OCC(=O)Nc2ccc(OC)cc2OC)c1	?	-2%	-2.1%	-2%	-12%	-6%	?	?
O=S(=O)(c1ccccc1)N1CCN(c2nnnn2-c2ccccc2)CC1	0%	-9%	4.2%	46%	1%	5%	-12%	17%
NC(=O)c1ccccc1Br	nt	nt	nt	4%	3%	-4%	9%	nt
O=C(Nc1ccc(N2CCN(C(=O)c3ccccc3F)CC2)cc1)c1cncc(Br)c1	?	nt	nt	-11%	1%	?	32µM*	?
Cc1cc(C)cc(N(CCC(=O)Nc2nnc(C)s2)S(=O)(=O)c2ccc(Cl)cc2)c1	?	2%	-1.6%	7%	3%	-6%	-15%	8%
CSCC[C@H](NC(=O)C1CCN(C(=O)[C@H](Cc2ccccc2)NS(=O)(=O)c2ccc(C)cc2)CC1)C(=O)O	19%	nt	nt	10%	4%	1%	11%	24%
COC(=O)c1cc(S(=O)(=O)N2CCN(c3ccccc3)CC2)c[nH]1	nt	nt	nt	-10%	-10%	-5%	0%	nt
O=C(CSc1ccc(-c2ccco2)nn1)NC1CCCC1	-5%	nt	nt	22%	nt	-3%	-3%	2%[46.1 µM]
CCOC(=O)COc1cc([N+](=O)[O-])cc2cccnc12	17%[46.1 µM]	nt	nt	-11%	7%	-2%	-11%	16%[46.1 µM]
Cn1c2ccccc2c(=O)c2c(=O)n(Cc3ccccc3)c(-c3ccc(F)cc3)nc21	-13%	nt	nt	-27%	4%	0%	-5%	5%
COc1ccc(S(=O)(=O)Nc2cc(C)on2)cc1OC	23%	7%	3.2%	3%	-4%	14%	18%	2%
Cc1oc(-c2ccccc2Cl)nc1CS(=O)CC(=O)NCc1ccco1 (stereo unspecified)	nt	nt	nt	2%	10%	20%	14%	nt
CCOCCCN(C(=O)Nc1ccc(CC)cc1)C1CCN(C(C)=O)CC1	5%	10%	0.2%	-8%	-18%	7%	nt	19%
CC(C)OC(=O)c1cccnc1N1CCN(c2ccc(F)cc2)CC1	0%	-9%	-0.6%	-6%	-13%	-21%	?	0%
COc1ccc(-c2nc(SCC(=O)NC3CCCC3)c(-c3ccc(C)cc3)[nH]2)cc1OC	?	?	-8.8%	nt	nt	nt	0%	?
O=C1C=CC(=O)N1N(c1ccccc1)c1ccccc1	?	5%	-5.7%	nt	-50%	-60%	?	?
Cc1ccc(C)c(Nc2c([N+](=O)[O-])c(=O)oc3ccccc23)c1	-25%[46.1 µM]	nt	nt	5%	-2%	-2%	-8%	?
CC(=O)c1ccc(NC(=O)c2ccc3c(c2)C(=O)N(c2ccccn2)C3=O)cc1	6%[46.1 µM]	nt	nt	-4%	-1%	12%	-14%	13%[46.1 µM]
O=C(CCc1nnc(-c2ccsc2)o1)N1CCc2c(Cl)cccc2C1	nt	nt	nt	4%	0%	-1%	14%	nt
COc1ccc(N(C(=O)c2snc(C(N)=O)c2N)C(C(=O)NC2CCCC2)c2cc(OC)ccc2OC)c(OC)c1 (stereo unspecified)	3%[46.1 µM]	nt	nt	6%	-1%	1%	18%	?
CCN(CC)C(=O)CN1CCN(c2ccccc2F)CC1	19%	3%	5.3%	-7%	?	-2%	nt	0%
O=[N+]([O-])c1ccc(Sc2nnnn2-c2ccccc2)nc1	?	nt	nt	?	nt	-17%	22µM*	13µM*
O=C(NCCCNC(=O)c1cc(Cl)ccc1Cl)c1ccccn1	22%	nt	nt	-10%	?	5%	-17%	6%[46.1 µM]
O=C(Nc1ccccc1)NC1CCCCNC1=O (stereo unspecified)	?	nt	nt	-3%	2%	0%	17%	0%
CS(=O)(=O)c1ccc(-c2nnc(NC(=O)c3cccc(N4C(=O)CCC4=O)c3)o2)cc1	-3%	nt	nt	6%	nt	-8%	-3%	-3%[46.1 µM]
Cc1oc2cc3c(C(=O)N4CCCCC4)c(C)oc3cc2c1C(=O)N1CCCCC1	?	5%	-4.6%	-1%	-5%	6%	nt	2%
CCOc1cccc(Nc2nn(-c3ccc(OC(F)(F)F)cc3)nc2C(C)=O)c1	?	1%	-0.2%	nt	nt	nt	-13%	-1%[46.1 µM]

Screens (PubChem)
